Screening data from PubChem BioAssay.
Mtb MbtI inh = blocks the Mycobacterium tuberculosis siderophore enzyme MbtI; inhibition, %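 (about 17 µg/mL by stock and volumes)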; 100,000 compounds, 0.89% hits; purified MbtI enzyme, fluorescence intensity read-out;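 active = above 50% in both replicates, above 80% if mildly self-fluorescent; inactive = the rest, strongly fluorescent compounds included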;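 note: 0% = mean of negative and 100% = mean of positive controls; one replicate is shown; some compounds called inactive have numbers as strong as hits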
Target sequence (P9WFX0 whole entry, looked up): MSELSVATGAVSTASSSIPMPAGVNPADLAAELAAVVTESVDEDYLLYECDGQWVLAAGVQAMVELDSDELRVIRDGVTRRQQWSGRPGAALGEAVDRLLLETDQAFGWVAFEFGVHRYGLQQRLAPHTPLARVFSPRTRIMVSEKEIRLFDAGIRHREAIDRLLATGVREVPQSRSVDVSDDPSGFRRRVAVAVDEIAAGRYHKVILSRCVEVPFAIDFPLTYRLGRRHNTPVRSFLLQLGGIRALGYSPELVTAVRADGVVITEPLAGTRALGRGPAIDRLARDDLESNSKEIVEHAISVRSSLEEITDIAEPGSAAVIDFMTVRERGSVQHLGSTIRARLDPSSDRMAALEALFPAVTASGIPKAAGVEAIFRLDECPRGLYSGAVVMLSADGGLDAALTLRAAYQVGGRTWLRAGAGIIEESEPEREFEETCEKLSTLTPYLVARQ
Mtb MenB inh = blocks the Mycobacterium tuberculosis MenB enzyme | AID 540299 | 100,000 compounds, 0.43% hits | P9WNP5 | MenB enzyme assay, absorbance read-out; some hits fall short of the stated cut | inhibition, %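 (about 12 µg/mL by stock and volumes)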;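 active = mean of two replicates above 30%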;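 note: 0% = no compound and 100% = wells with inactive enzyme; the first replicate is given; strong numbers were not always called active; inactives centre near -10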
Polio RdRp inh = inhibitors of poliovirus RNA polymerase binding and polymerization | poliovirus polymerase elongation, fluorescence polarization; active compounds read low | % elongation, % (compound at 16.7 µg/mL) | 150,000 compounds, 0.66% hits; in the data active = % elongation below about 90%; note: some results filed as inactive read as strong as hits
Target sequence (P03300 1749-2209 limits assumed): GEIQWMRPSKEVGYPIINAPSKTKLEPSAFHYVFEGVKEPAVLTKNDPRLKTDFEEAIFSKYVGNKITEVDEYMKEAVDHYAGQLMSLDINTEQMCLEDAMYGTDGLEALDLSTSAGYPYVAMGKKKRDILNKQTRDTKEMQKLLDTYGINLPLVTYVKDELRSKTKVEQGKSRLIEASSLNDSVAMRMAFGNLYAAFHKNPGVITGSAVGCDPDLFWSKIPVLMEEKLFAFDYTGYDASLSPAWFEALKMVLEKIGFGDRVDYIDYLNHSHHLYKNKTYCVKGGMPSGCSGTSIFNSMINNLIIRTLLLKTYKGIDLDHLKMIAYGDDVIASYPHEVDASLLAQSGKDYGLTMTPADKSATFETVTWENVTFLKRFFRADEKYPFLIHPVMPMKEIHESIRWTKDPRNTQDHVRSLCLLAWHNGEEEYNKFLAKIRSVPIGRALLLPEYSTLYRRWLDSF
Polio RdRp inh intensity = second read-out of Polio RdRp inh, no call of its own (marks repeat the call); % elongation; measured here: total intensity read-out; formula for this scale not given here;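 total fluorescence in place of polarization; lower means less elongation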
* marks the source's active call; other numbers are inactive results; i = inactive; x = no result given; & = joins results of further samples.

Value order – Mtb MbtI inh, Mtb MenB inh, Polio RdRp inh, Polio RdRp inh intensity
1: O=C(/C=C/c1ccccc1)Nc1ccc(N2CCN(c3ccc(C(F)(F)F)cn3)CC2)nc1
    -10, -23, 104, 113
2: Cc1cc(C)n(-c2ncc(S(=O)(=O)C(C)(C)C)c(N)n2)n1
    6, -10, 106, 109
3: Cn1c(C(O)c2ccc3c(c2)OCO3)nc2ccccc21 (stereo not drawn)
    -12, x, 100, 102
4: CCOC(=O)c1cccc(NC(=O)c2c(C)nn(-c3ccccc3)c2-n2cccc2)c1
    -10, -14, 105, 102
5: CC(C)(C)c1c[n+](-c2ccccc2)c2n1CCS2
    0, x, 103, 97
6: Cc1c(C#N)c(-c2ccccc2)nc2ccccc12
    -7, x, 105, 104
7: Clc1ccccc1C(c1ccccc1)(c1ccccc1)n1ccnc1
    -6&-11, -6&1, 100&101, 101&99
8: CCOc1ccc(-n2ccnc(SCC(N)=O)c2=O)cc1
    -6, -28, 104, 100
9: N#CCCn1c(SCc2cc3ccccc3nc2Cl)nc2ccccc21
    23, -4, 102, 104
10: Cc1n[nH]c(=O)n1Cn1c(C)n[nH]c1=O
    2, 3, 103, 105
11: CC1CCC2(CC1)NC(=S)N(c1ccccc1)N2 (stereo not drawn)
    8, -4, 101, 103
12: Nc1c(C(=O)N2CCc3ccccc32)sc2nc(C(F)(F)F)c3c(c12)CCCC3
    -2, -7, 96, 101
13: COc1ccc(-c2nc3ccc(C)cc3[nH]2)cc1OC
    89, -4, 101, 104
14: Cc1ccccc1OC(C)C(=O)NC1CCCC1 (stereo not drawn)
    -4, -21, 101, 102
15: Cc1cccc(CCNC(=O)Cc2noc3ccccc23)c1
    -20, -2, 100, 101
16: Nn1c(C(O)c2ccccc2)n[nH]c1=S (stereo not drawn)
    x, -20, 102, 101
17: CCN(CC(=O)Nc1ccc2c(c1)OCCO2)C(=O)c1c(-c2ccccc2)noc1C
    6, -4, 102, 105
18: O=C(CSc1ccc2ccccc2c1)N1CCN(C(=O)c2ccco2)CC1
    -5, x, 103, 105
19: O=C(NC(=O)c1ccc(-c2ccc(Cl)cc2)s1)c1ccccc1
    189, 12, 103, 103
20: CC(C)CC(Nc1ncnc2c1oc1ccccc12)C(=O)O (stereo not drawn)
    4, -15, 103, 104
21: CCOC(=O)Cn1c(=O)oc2cc(S(=O)(=O)NC3CCCCC3)ccc21
    0, -1, 101, 111
22: Oc1ccccc1N1CCN(c2nc(CN3CCOCC3)nc3sc4c(c23)CCCC4)CC1
    -10, 7, 104, 108
23: CC(=O)Nc1ccc(S(=O)(=O)C(C#N)c2nc3ccccc3nc2NCCCO)cc1 (stereo not drawn)
    -10, -19, 103, 115
24: O=S(=O)(N=P(Nc1nccs1)(c1ccccc1)c1ccccc1)c1ccccc1
    3, 2, 101, 101
25: COc1ccccc1N1CCN(C(=O)CN(Cc2ccccc2)S(=O)(=O)c2ccc(F)cc2)CC1
    -6, -1, 102, 101
26: Cc1cccn2cc(-c3cccc(S(=O)(=O)N(C)C)c3)nc12
    i, 2, 102, 103
27: CCOC(=O)N1CCC(N2Cc3cccc(C(=O)O)c3C2=O)CC1
    2, -11, 101, 101
28: Cc1ccc(NC(=O)OCC(F)(F)F)cc1Cl
    -5, -6, 97, 99
29: O=C(NCC1CCCO1)C1CCCN(S(=O)(=O)c2ccc(Br)cc2)C1 (stereo not drawn)
    2, -16, 102, 98
30: O=c1ccc(=O)n(Cc2ccccc2)[nH]1
    -4, -19, 107, 107

The last five compounds of the part above come first, to join the parts.
Value order – Mtb MbtI inh, Mtb MenB inh, Polio RdRp inh, Polio RdRp inh intensity
26: Cc1cccn2cc(-c3cccc(S(=O)(=O)N(C)C)c3)nc12
    i, 2, 102, 103
27: CCOC(=O)N1CCC(N2Cc3cccc(C(=O)O)c3C2=O)CC1
    2, -11, 101, 101
28: Cc1ccc(NC(=O)OCC(F)(F)F)cc1Cl
    -5, -6, 97, 99
29: O=C(NCC1CCCO1)C1CCCN(S(=O)(=O)c2ccc(Br)cc2)C1 (stereo not drawn)
    2, -16, 102, 98
30: O=c1ccc(=O)n(Cc2ccccc2)[nH]1
    -4, -19, 107, 107
31: CCCc1cc(=O)oc2cc3occ(-c4ccccc4)c3cc12
    2, -14, 102, 104
32: NCc1ccc(-c2nc3ccccc3o2)cc1
    x, 0, 100, 112
33: CNCCC=C1c2ccccc2C=Cc2ccccc21
    2, -3, 100, 104
34: Cc1cnc(-c2oc3ccc(Br)cc3c(=O)c2C)cn1
    -5, -14, 104, 101
35: CC(c1ccco1)N(C(=O)/C=C/c1cccs1)c1ccccn1 (stereo not drawn)
    -7, x, 101, 96
36: CC1CCC2(CC1)NC(=O)N(NC(=O)CN1c3cccc4cccc(c34)S1(=O)=O)C2=O (stereo not drawn)
    -10, -28, 105, 103
37: O=C1/C(=C/c2ccc(Br)cc2)C=C(c2ccccc2)N1c1ccccc1O
    14, -32, 116, 130
38: CC(C)N1C(=O)CCC1C(=O)NCCc1ccccc1 (stereo not drawn)
    -17, 6, 99, 101
39: Cc1ccc(N(CC(=O)N2CCN(c3ccccc3)CC2)C2=NC(=O)CS2)cc1
    4, -2, 102, 100
40: CC(=O)Nc1ccc(CN2CCOCC2)cc1
    -11, 5, 98, 103
41: COc1ccc(O)c(C(C)(C)C)c1
    -1, -2, 102, 104
42: N#CC1C(=O)Nc2nc(N)[nH]c(=O)c2C1c1ccc(F)cc1 (stereo not drawn)
    16, 7, 101, 101
43: CSc1nc2ccc(NC(=O)C3CCCO3)cc2s1 (stereo not drawn)
    3, 8, 102, 106
44: CSc1nc2ccccc2c(=O)n1CCc1ccccc1
    -6, 13, 102, 106
45: CN(c1ccccc1)c1nc(N)c2c(N)nc(SCC(=O)O)cc2c1C#N
    4, -9, 115, 123
46: COC(=O)c1ccccc1N1C(=N)SCC1=O
    63, -18, 101, 98
47: [O-]/[N+](=C\c1ccccc1)C1CCCCC1/[N+]([O-])=C/c1ccccc1 (stereo not drawn)
    16, 17, 101, 104
48: CC1(C)N=C(c2ccccc2)C(=O)N1
    -5, -17, 105, 107
49: CNC1(C#N)CCC(C)CC1 (stereo not drawn)
    -9, -41, 103, 103
50: Cc1cc(C)c2nc3nc(C)cc(C)c3c(N)c2c1
    9, -128, 90*, 76*
51: Cn1ccnc1SCC(=O)n1c2c(c3ccccc31)CCCC2
    -4, -6, 103, 100
52: Cc1ccccc1OCC(=O)Nc1sc2c(c1C(=O)NCc1ccco1)CCCC2
    -3, -3, 102, 105
53: CCC(Sc1nc2ncccc2o1)C(=O)NC1CCCCC1 (stereo not drawn)
    -6, 0, 103, 103
54: O=C(OCC(F)(F)F)c1ccc(COc2ccc3ccccc3c2)o1
    -16, -14, 100, 95
55: O=C(CSc1nnc(-c2cccnc2)o1)c1ccccc1
    -16, -16, 103, 104
56: COc1ccc(/C(C#N)=C/N2CCOCC2)cc1OC
    x, -12, 106, 113
57: CC1=C(/C=C/C(C)=C/C=C/C(C)=C/CO)C(C)(C)CCC1
    -4, 5, 96, 99
58: CC1(C)N=C(SCC(=O)Nc2ccccc2)c2ccccc2N1
    -31, -114, 97, 115
59: NC(=O)c1cnn2c(C(F)(F)F)cc(-c3ccccc3)nc12
    7, -12, 100, 101
60: CSc1nsc(SC)c1NC(=O)N1CCCC1
    8, -58, 102, 100

Complete entries as entered above. Order of values: Mtb MbtI inh	Mtb MenB inh	Polio RdRp inh	Polio RdRp inh intensity
`O=S(=O)(N=P(Nc1nccs1)(c1ccccc1)c1ccccc1)c1ccccc1` reads 3	2	101	101
`CSc1nc2ccccc2c(=O)n1CCc1ccccc1` reads -6	13	102	106
`COC(=O)c1ccccc1N1C(=N)SCC1=O` reads 63	-18	101	98
`Oc1ccccc1N1CCN(c2nc(CN3CCOCC3)nc3sc4c(c23)CCCC4)CC1` reads -10	7	104	108
`NC(=O)c1cnn2c(C(F)(F)F)cc(-c3ccccc3)nc12` reads 7	-12	100	101

Molecules listed so far containing a CF3 group (5):
Value order – Mtb MbtI inh, Mtb MenB inh, Polio RdRp inh, Polio RdRp inh intensity
1: O=C(/C=C/c1ccccc1)Nc1ccc(N2CCN(c3ccc(C(F)(F)F)cn3)CC2)nc1
    -10, -23, 104, 113
12: Nc1c(C(=O)N2CCc3ccccc32)sc2nc(C(F)(F)F)c3c(c12)CCCC3
    -2, -7, 96, 101
28: Cc1ccc(NC(=O)OCC(F)(F)F)cc1Cl
    -5, -6, 97, 99
54: O=C(OCC(F)(F)F)c1ccc(COc2ccc3ccccc3c2)o1
    -16, -14, 100, 95
59: NC(=O)c1cnn2c(C(F)(F)F)cc(-c3ccccc3)nc12
    7, -12, 100, 101

(next part)
Value order – Mtb MbtI inh, Mtb MenB inh, Polio RdRp inh, Polio RdRp inh intensity
61: Clc1ccc(-c2noc3ncnc(N4CCCC4)c23)cc1
    1, 17, 100, 104
62: CCOc1cc(C)c(Cl)cc1S(=O)(=O)Nc1ccccn1
    8, 1, 101, 103
63: CCCNC(=O)c1cnn(-c2cccc(C)c2)c1-n1cccc1
    17, -17, 100, 100
64: CN(C(=O)c1cccc(S(=O)(=O)NCc2ccccc2)c1)C1CCCCC1
    -10, x, 101, 106
65: CCc1ccc2[nH]c(=O)c(Cc3ccccc3)c(O)c2c1
    -286, -24, 105, 99
66: Cc1onc(-c2ccccc2Cl)c1C(=O)N=C1N=C2C=CC=CN2Cc2ccccc21
    -8, -3, 103, 109
67: CC(=O)n1c(-c2ccc(C)cc2)cc(-c2ccc(C)cc2)c(C#N)c1=O
    101, -21, 100, 103
68: Cc1noc(C)c1COC(=O)CNS(=O)(=O)c1c(Cl)cccc1Cl
    -8, -8, 105, 111
69: [O-][n+]1ccccc1Oc1ncnc2sc3c(c12)CCCC3
    -27, 3, 109, 104
70: COc1ccc(CCN2C(=O)C3C(C(=O)Nc4cc(C)on4)C4(C)C=CC3(O4)C2C(=O)NC2CCCCC2)cc1 (stereo not drawn)
    -13, -20, 101, 102
71: CN(C(=O)c1cc(-c2ccccc2)on1)C1CCCCC1
    -6, 15, 97, 101
72: O=S(=O)(c1cccc(S(=O)(=O)N2CCOCC2)c1)N1CCCCCC1
    -8, 16, 102, 100
73: O=C(c1ccccc1F)N1CCC(n2nc(-c3ccccc3)oc2=O)CC1
    -20, 6, 100, 101
74: N#CCCN(/N=C/c1ccccc1)C1=NS(=O)(=O)c2ccccc21
    68, -12, 103, 96
75: COc1cccc(S(=O)(=O)N2CCOCC2)c1
    -10, -5, 100, 102
76: Cc1ccc(NC(=O)C(C)N(C)Cc2ccccc2)cc1 (stereo not drawn)
    -2, -41, 105, 95
77: COc1ccc(CN2CCc3ccccc3C2)cc1
    -9, -28, 102, 102
78: Cc1cc(-c2ccc(S(=O)(=O)NCc3ccccn3)s2)on1
    -15, -14, 102, 102
79: CCNS(=O)(=O)c1ccc(F)cc1
    5, 18, 102, 96
80: CCN(CC)C(=O)Sc1nc2ccccc2c(=O)n1CC1CC1
    -9, -14, 107, 113
81: CCn1c(SCc2ccc(Cl)cc2)nnc1C(C)C
    -11, -34, 100, 99
82: CCc1ccc(C(=O)CSc2ncn[nH]2)cc1
    17, -5, 103, 102
83: Cc1ccc(/C=C/C(=O)OCC(=O)Nc2ccc3c(c2)CCC3)o1
    -8, 4, 102, 108
84: COc1ccc(CN(C)CC(=O)Nc2ccccc2C(=O)NC2CC2)cc1F
    -1, 11, 101, 103
85: Cn1c2ccccc2c2nn3c(=S)[nH]nc3nc21
    22, 4, 100, 100
86: O=C(OCC1CCNCC1)c1ccc(F)cc1
    14, 27*, 102, 100
87: C=CCn1c(-c2ccncc2)nn(CN(C)CCc2ccc(OC)c(OC)c2)c1=S
    6, -5, 105, 108
88: CCSc1sc(CC)cc1C1C(C(=O)Nc2cccnc2)=C(C)NC2=C1C(=O)CCC2 (stereo not drawn)
    -2, -12, 105, 108
89: OCC[n+]1ccc(/C=C/c2c[nH]c3ccccc23)cc1
    25, -325, 68, 193
90: O=C(Cc1cccs1)NCC1(N2CCCCC2)CCCCC1
    -22, 1, 101, 107

Results in sequence from the entries so far.
Polio RdRp inh, nos. 75 to 82 → 100, 105, 102, 102, 102, 107, 100, 103
Mtb MenB inh, nos. 75 to 82 → -5, -41, -28, -14, 18, -14, -34, -5

Remaining list, next part:
Value order – Mtb MbtI inh, Mtb MenB inh, Polio RdRp inh, Polio RdRp inh intensity
91: CCC(C)Nc1nc(NC(C)C)nc(Oc2ccc(C(=O)OC(C)C(=O)OC)cc2)n1 (stereo not drawn)
    1, 0, 100, 102
92: CC12CN3CC(C)(CN(C1)C3(C)C)C2O (stereo not drawn)
    -22, 2, 101, 105
93: CN(C)CCP(=O)(c1ccccc1)c1ccccc1
    -8, -51, 99, 102
94: O=C1c2ccccc2C(=O)C1(CCO)c1ccccc1
    x, -5, 107, 110
95: O=C(O)C1CCCN1C(=O)Cc1ccccc1 (stereo not drawn)
    x, -8, 102, 98
96: CC(C)(C)N1C(=O)NC(=O)/C(=C\c2ccc(N3CCCC3)cc2)C1=O
    -7, -30, 108, 104
97: O=C(CCCOc1ccc(Cl)cc1Cl)Nc1ccc2c(c1)OCCO2
    x, -21, 101, 101
98: CC1CN(C(=O)/C=C/c2cn(-c3ccccc3)nc2-c2ccc(Cl)cc2)CC(C)O1 (stereo not drawn)
    1, x, 105, 98
99: CCS(=O)(=O)NCCc1csc(-c2ccc(OC)c(OC)c2)n1
    102, -28, 102, 100
100: Cc1ccc2nc(Cl)sc2c1
    -1, -17, 103, 107
101: O=C(/C=C/c1ccccc1)NC(=S)Nc1ccc(C(F)(F)F)cc1
    -6, 3, 101, 104
102: Cc1coc2cc3oc(=O)c(CC(=O)O)c(C)c3cc12
    -32, -28, 104, 100
103: CC(C)Nc1nc2c(S(=O)(=O)c3ccccc3)nnn2c2ccsc12
    52, -6, 99, 102
